ID4 SMM: ID4 (human) binding | 31,000 compounds, 1.2% hits | small molecule microarray, Flag-ID4 binding, fluorescence F/B | P47928 | calls only | AID 624137;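 active means spot signal over background at p below 0.07 in all four prints; compounds were printed on slides so no solution concentration is given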;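 further: a binder raises fluorescence above local background on the spot; about 2 pmol printed per array spot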
Target sequence (P47928 whole entry, looked up): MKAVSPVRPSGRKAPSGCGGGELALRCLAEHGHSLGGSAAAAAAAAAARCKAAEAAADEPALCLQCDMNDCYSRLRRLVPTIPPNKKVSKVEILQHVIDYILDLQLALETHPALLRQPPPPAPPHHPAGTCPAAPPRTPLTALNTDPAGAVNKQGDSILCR
Calls only; i = inactive.

SMILES | ID4 SMM
Cc1ccc(NC(=O)CSc2nc3ccccc3c(=O)n2-c2cccc(C(F)(F)F)c2)c(C)c1 | i
O=C(COc1cc(Cl)c(Cl)cc1Cl)Nc1ncn[nH]1 | i
O=C(N[C@@H]1C=C[C@@H](CC(=O)N2CCc3ccccc3C2)O[C@@H]1CO)C1CCC1 | i
C[C@@H]1CN([C@H](C)CO)S(=O)(=O)c2ccc(C#CC3CCCC3)cc2O[C@@H]1CN(C)C(=O)Cc1ccccc1 | i
COc1cc2ncnc(Nc3ccc(Oc4ccccc4)cc3)c2cc1OC | i
O=C(CSc1nnc(-c2ccc(Br)cc2)o1)Nc1cc(C(F)(F)F)ccc1Cl | i
Cc1cc(OCC(=O)Nc2cccc(-c3nnc(-c4ccccc4)o3)c2)cc(C)c1Cl | i
O=S(=O)(c1ccc(F)cc1)c1nc(-c2ccc(F)cc2)oc1NCCN1CCOCC1 | i
Cc1cc(OCC(=O)Nc2ccc(-c3nc4ccccc4s3)c(O)c2)ccc1Cl | i
C[C@H]1CN([C@@H](C)CO)C(=O)c2cc(-c3cccc(F)c3)cnc2O[C@H]1CN(C)C(=O)C1CCOCC1 | i
Cc1ccc([N+](=O)[O-])c(OCCCSc2ncccn2)c1 | i
C[C@H](CO)N1C[C@H](C)[C@H](CN(C)Cc2ccccc2C(=O)O)Oc2cc(C#CC3CCCC3)ccc2S1(=O)=O | i
C[C@H](CO)N1C[C@H](C)[C@@H](CN(C)C(=O)C2CCC2)Oc2ncc(-c3cccc(C#N)c3)cc2C1=O | i
C[C@H](CO)N1C[C@H](C)[C@@H](CN(C)C(=O)C2CCOCC2)Oc2cc(C#Cc3ccncc3)ccc2S1(=O)=O | i
N/C(CCCN1CCCCC1)=N\O | i
COc1ccc(C(=O)Nc2ccc3c(c2)C(=O)N(C)C[C@@H](OC)[C@H](C)CN(C)[C@H](C)CO3)cc1 | i
O=C(C[C@H]1C=C[C@H](NC(=O)CN2CCOCC2)[C@@H](CO)O1)NCc1cccc(F)c1 | i
CCCN(C)C[C@@H]1Oc2cc(-c3ccc(C)cc3)ccc2S(=O)(=O)N([C@H](C)CO)C[C@@H]1C | i
C[C@@H]1CN([C@H](C)CO)S(=O)(=O)c2ccc(/C=C/c3ccccc3)cc2O[C@@H]1CN(C)C(=O)CN1CCOCC1 | i
CNC[C@@H]1Oc2ncc(-c3ccccc3C)cc2C(=O)N([C@@H](C)CO)C[C@@H]1C | i
Cc1nc2sccn2c(=O)c1CCN1CCC(=C(c2ccc(F)cc2)c2ccc(F)cc2)CC1 | i
CCOC(=O)c1ccc(NC(=O)CN2C(=O)C3C4C=CC(C5CC45)C3C2=O)cc1 (centres undefined) | i
C=CCn1c(=O)[nH]c2nc3cc(N=CN(C)C)c(C)cc3nc2c1=O | i
CCNC(=O)C[C@@H]1C=C[C@H](NC(=O)C2CCC2)[C@H](CO)O1 | i
Oc1c(C(Nc2ccccn2)c2c(F)cccc2Cl)cc(Cl)c2cccnc12 (centres undefined) | i
Cc1cccc(NC(=O)CCCC(=O)O)c1 | i
Cc1ccc(S(=O)(=O)N(C)CC(=O)Nc2cccc(Cl)c2)cc1 | i
COc1ccc(Cl)cc1NC(=O)CSc1nnc(-c2ccccc2)n1-c1ccc(C)cc1 | i
CC(C)C#Cc1ccc2c(c1)O[C@H](CN(C)S(C)(=O)=O)[C@@H](C)CN([C@H](C)CO)S2(=O)=O | i
CCCNC(=O)C[C@H]1C[C@H]2c3cc(NC(=O)Nc4ccc(F)cc4)ccc3O[C@H]2[C@H](CO)O1 | i
COc1ccc(OC)c(NC(=O)Cc2c(OC)ccc3cc(Br)ccc23)c1 | i
C[C@@H]1CN([C@H](C)CO)C(=O)c2cc(Br)cnc2O[C@H]1CN(C)C(=O)CC1CC1 | i
COC(=O)c1ccc(NC(=O)CSc2nnc(-c3cccs3)n2-c2ccc(OC)cc2)cc1 | i
COc1cccc(S(=O)(=O)NCc2ccc(C(=O)Nc3ccc(Br)cc3F)cc2)c1 | i
CCOC(=O)c1sc(NC(=O)c2cc(C)on2)c(C(=O)OCC)c1C | i
O=C(C[C@@H]1C=C[C@@H](NC(=O)CN2CCOCC2)[C@@H](CO)O1)NC1CCCCC1 | i
C[C@H]1CN([C@@H](C)CO)C(=O)c2cc(C#CCc3ccccc3)cnc2O[C@@H]1CN(C)Cc1ccccn1 | i
CS(=O)(=O)N(CC(=O)Nc1ccccc1C(=O)N1CCOCC1)c1cc(C(F)(F)F)ccc1Cl | i
O=C(CSc1nnc(-c2ccccc2)n1-c1ccccc1)Nc1ccc(Br)c(Cl)c1 | i
O=C(Cc1ccncc1)Nc1ccc2c(c1)[C@@H]1C[C@H](CC(=O)NC3CCCCC3)O[C@@H](CO)[C@@H]1O2 | i
COc1ccc(Cl)cc1NC(=O)CN(C)S(=O)(=O)c1c(C)cc(C)cc1C | i
CCC(=O)Nc1ccc2c(c1)C(=O)N(C)C[C@@H](OC)[C@H](C)CN(CC1CC1)[C@H](C)CO2 | i
CC(=O)c1ccc(-n2c(CCC(=O)O)ccc2-c2ccc(Br)cc2)cc1 | i
O=C(CSc1nc(O)cc(=O)[nH]1)Nc1cc(Cl)cc(Cl)c1 | i
CCOc1ccc(NC(=O)Cn2cc(C(=O)OC)c3ccccc32)cc1 | i
COc1ccc(NC(=O)CN(C)S(=O)(=O)c2ccc(C)cc2)cc1 | i
C[C@H](O)C#Cc1cnc2c(c1)C(=O)N([C@H](C)CO)C[C@@H](C)[C@@H](CN(C)Cc1cncnc1)O2 | i
C[C@@H]1CN([C@H](C)CO)C(=O)c2cc(NC(=O)CCC(F)(F)F)ccc2O[C@@H]1CN(C)CC1CC1 | i

The last 7 entries of the section before are carried over, then new ones follow:
SMILES | ID4 SMM
CCC(=O)Nc1ccc2c(c1)C(=O)N(C)C[C@@H](OC)[C@H](C)CN(CC1CC1)[C@H](C)CO2 | i
CC(=O)c1ccc(-n2c(CCC(=O)O)ccc2-c2ccc(Br)cc2)cc1 | i
O=C(CSc1nc(O)cc(=O)[nH]1)Nc1cc(Cl)cc(Cl)c1 | i
CCOc1ccc(NC(=O)Cn2cc(C(=O)OC)c3ccccc32)cc1 | i
COc1ccc(NC(=O)CN(C)S(=O)(=O)c2ccc(C)cc2)cc1 | i
C[C@H](O)C#Cc1cnc2c(c1)C(=O)N([C@H](C)CO)C[C@@H](C)[C@@H](CN(C)Cc1cncnc1)O2 | i
C[C@@H]1CN([C@H](C)CO)C(=O)c2cc(NC(=O)CCC(F)(F)F)ccc2O[C@@H]1CN(C)CC1CC1 | i
Cn1c(SCC(=O)Nc2sc3c(c2C#N)CCCC3)nnc1-c1ccccc1 | i
CCCN(C)C[C@@H]1Oc2cc(-c3ccc(F)cc3)ccc2S(=O)(=O)N([C@H](C)CO)C[C@@H]1C | i
C[C@H](CO)N1C[C@H](C)[C@H](CN(C)C(=O)c2cccnc2)Oc2ncc(C3=CCCC3)cc2C1=O | i
C[C@H](CO)N1C[C@H](C)[C@H](CN(C)C)Oc2cc(C#CC3CCCCC3)ccc2S1(=O)=O | i
O=C(COc1ccc(Br)cc1C(=O)Nc1ccc(Cl)cc1)NC1CC1 | i
Cc1c(Br)c([N+](=O)[O-])nn1CC(=O)Nc1ccc(C#N)cc1 | i
O=C(CSc1nnc(-c2cccnc2)o1)c1ccc(Br)cc1 | i
C[C@@H]1CN([C@@H](C)CO)C(=O)c2cc(C#Cc3ccccc3)cnc2O[C@@H]1CN(C)Cc1ccccn1 | i
C[C@H](CO)N1C[C@H](C)[C@H](CN(C)C)Oc2cc(C#Cc3ccccc3F)ccc2S1(=O)=O | i
CCOc1ccc(-n2c(O)c(C3=c4ccccc4=NC3=O)sc2=O)cc1 | i
O=C(O)C[C@H]1C[C@@H]2c3cc(NC(=O)CC4CC4)ccc3O[C@@H]2[C@@H](CO)O1 | i
Cc1ccc([N+](=O)[O-])cc1N(CC(=O)Nc1cccc(C)c1C)S(C)(=O)=O | i
CCc1ccc(-n2c(SCC(=O)c3ccc(Cl)cc3)nnc2-c2ccncc2)cc1 | i
CCCN(C)C[C@H]1Oc2cc(C#Cc3ccccc3)ccc2S(=O)(=O)N([C@H](C)CO)C[C@H]1C | i
CC(=O)Oc1ccc(C(=O)NCc2nc(-c3ccccc3)no2)cc1 | i
COCCCNC(=O)c1ccc(-c2nc3ccccc3nc2-c2ccccc2)cc1 | i
CCOc1cccc(-c2nnc(SCC(=O)Nc3c(C)cccc3C)n2C)c1 | i
COc1ccc(OC)c(N(CC(=O)N2CCc3ccccc3C2)S(C)(=O)=O)c1 | i
COc1ccc(C#Cc2cnc3c(c2)C(=O)N([C@@H](C)CO)C[C@@H](C)[C@@H](CN(C)C)O3)cc1 | i
O=C(Nc1ccc(S(=O)(=O)N2CCOCC2)cc1)c1cc(-c2ccncc2)nc2c(Cl)cccc12 | i
N#C[C@@H]1[C@@H](c2ccc(/C=C/c3ccccc3)cc2)[C@@H](CO)N1C(=O)Cc1ccccn1 | i
O=C(CCCN1C(=O)c2ccccc2C1=O)Nc1ccc2ccccc2c1 | i
C[C@H](CO)N1C[C@H](C)[C@@H](CN(C)Cc2ccncc2)Oc2ncc(C#CC3(O)CCCC3)cc2C1=O | i
C/C=C/c1ccc2c(c1)O[C@H](CN(C)C(=O)Nc1cccc(F)c1)[C@@H](C)CN([C@H](C)CO)S2(=O)=O | i

Four records drawn at random from those above:
SMILES | ID4 SMM
C[C@@H]1CN([C@H](C)CO)C(=O)c2cc(Br)cnc2O[C@H]1CN(C)C(=O)CC1CC1 | i
Cc1cccc(NC(=O)CCCC(=O)O)c1 | i
O=C(CSc1nnc(-c2ccccc2)n1-c1ccccc1)Nc1ccc(Br)c(Cl)c1 | i
C[C@H](CO)N1C[C@H](C)[C@H](CN(C)C)Oc2cc(C#Cc3ccccc3F)ccc2S1(=O)=O | i

(cont.)
SMILES | ID4 SMM
Cc1cc(N(CC(=O)Nc2cc(C(F)(F)F)ccc2Cl)S(C)(=O)=O)ccc1Br | i
C[C@@H]1CN([C@H](C)CO)C(=O)c2ccccc2-c2ccccc2CO[C@@H]1CN(C)C(=O)[C@H]1CCCN1C | i
O=C(CSc1nnnn1-c1ccccc1)Nc1cc(Cl)ccc1C(=O)O | i
C/C=C/c1ccc2c(c1)O[C@H](CN(C)CC1CCOCC1)[C@@H](C)CN([C@H](C)CO)S2(=O)=O | i
Cn1c(SCC(=O)N2CCc3ccccc32)nnc1-c1ccco1 | i
O=C(Nc1ccc(N2CCOCC2)cc1Cl)C1CCN(C(=O)OCc2ccccc2)CC1 | i
COCC#Cc1cnc2c(c1)C(=O)N([C@H](C)CO)C[C@@H](C)[C@H](CN(C)Cc1ccc3c(c1)OCO3)O2 | i
CC(=O)Nc1sc(C)c(-c2ccccc2)c1C(=O)NCc1cccnc1 | i
Cn1c(SCC(=O)N2CCc3ccccc32)nnc1-c1ccc(NC(=O)c2ccc(F)cc2)cc1 | i
C[C@H](CO)N1C[C@H](C)[C@H](CN(C)C)Oc2ncc(-c3cccnc3)cc2C1=O | i
Cc1cc(I)ccc1NC(=O)CN(c1cccc(F)c1)S(C)(=O)=O | i
COC(=O)C1=CO[C@@H](O[C@@H]2O[C@H](CO)[C@@H](O)[C@H](O)[C@H]2O)[C@@H]2[C@@](C)(O)[C@@H](O)C[C@]12O | i
O=C(CSc1nnc(-c2ccc(Cl)cc2)o1)Nc1ccccc1C(F)(F)F | i
COc1ccc(NC(=O)CN(C)S(=O)(=O)c2ccc(C)cc2)c([N+](=O)[O-])c1 | i
CCCNC(=O)N(C)C[C@H]1Oc2cc(C#Cc3ccccn3)ccc2S(=O)(=O)N([C@@H](C)CO)C[C@H]1C | i
COc1ccc(C(=O)C(C)Oc2cccc(NC(=O)c3ccc([N+](=O)[O-])cc3)c2)cc1 (centres undefined) | i
C[C@@H]1CN([C@@H](C)CO)C(=O)c2cccc(N(C)C)c2O[C@H]1CN(C)C(=O)Nc1ccc(F)cc1 | i
Cc1ccc(-c2ccc3c(c2)O[C@@H](CN(C)C)[C@@H](C)CN([C@H](C)CO)S3(=O)=O)cc1 | i
Cc1cc(N(CC(=O)NC2CC3CCC2C3)S(C)(=O)=O)ccc1Br (centres undefined) | i
COc1ccc(CCNC(=O)c2cc3cc(Br)cc(OC)c3oc2=O)cc1OC | i
CC(C)c1ccc(S(=O)(=O)NCc2cccnc2)cc1 | i
CS(=O)(=O)N(CC(=O)NC1CCCCC1)c1ccc(F)cc1 | i
COCC#Cc1ccc2c(c1)O[C@@H](CN(C)Cc1ccncc1)[C@@H](C)CN([C@@H](C)CO)S2(=O)=O | i
O=C(C[C@@H]1C=C[C@H](NC(=O)CN2CCOCC2)[C@@H](CO)O1)NC1CCCCC1 | i
Cc1cc(Br)c(NC(=O)CSc2nnc(-c3ccccc3)o2)cc1C | i
CC1C(=O)C(=O)[C@@H]2O[C@@H]2C1=O (some centres undefined) | i
C[C@H](CO)N1C[C@H](C)[C@H](CN(C)C(=O)C2CCC2)Oc2ncc(C3=CCCC3)cc2C1=O | i
C[C@@H]1CN([C@H](C)CO)C(=O)c2cc(C#Cc3ccccc3F)cnc2O[C@H]1CN(C)C(=O)C1CCCCC1 | i
CC(C)(C)CC(=O)NCc1ccc(S(N)(=O)=O)cc1 | i
Cc1ccc(NC(=O)CSc2nnc(-c3ccccc3F)n2C)cc1[N+](=O)[O-] | i
CCCC#Cc1ccc2c(c1)O[C@H](CN(C)CC1CC1)[C@H](C)CN([C@@H](C)CO)S2(=O)=O | i
CC/C=C/c1ccc(C)cc1/C=C/CCCC(=O)O | i
COc1ccc(CNC(=O)N(C)C[C@H]2OCc3ccccc3-c3c(n(C)c4ccccc34)C(=O)N([C@H](C)CO)C[C@H]2C)cc1 | i
O=C(CSc1nc(O)cc(=O)[nH]1)Nc1cccc(C(F)(F)F)c1 | i
C/C=C/c1cnc2c(c1)C(=O)N([C@@H](C)CO)C[C@@H](C)[C@H](CN(C)C(=O)C1CCOCC1)O2 | i
COc1cc(OC)c(NC(=O)COc2ccc([N+](=O)[O-])cc2)cc1Cl | i
C[C@@H]1CN([C@@H](C)CO)C(=O)c2cc(-c3cccnc3)cnc2O[C@@H]1CN(C)Cc1ccccc1 | i
Cc1onc(-c2ccccc2)c1-c1ccnn1S(=O)(=O)c1ccc(Cl)cc1 | i

This is a subset, so the mix of outcomes need not match the whole.
